# NPYLR7 agonist – agonists of mosquito NPYLR7 receptor, primary screen, cell-based, Aedes aegypti, calcium fluorescence, mosquito biting behavior; HEK293T NPYLR7/Galpha15, GCaMP6s calcium fluorescence; activation, % at 10 µM; 270,000 tested, 0.15% active; AID 1259423, 2018; in the data active = activation above about 40%;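 also: 0% = vehicle and 100% = reference agonist at the receptor; some compounds past the cut are filed as inactive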
# NPYLR7 agonist max-min – recorded beside NPYLR7 agonist, whose call it bears; activation, %; measured here: Max-Min RFU normalised activation; some inactives read as strong as hits;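 span of the calcium signal over five minutes; 0% = vehicle and 100% = native peptide agonist; compound fluorescence can raise it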
# * marks the source's active call; other numbers are inactive results; & = joins results of further samples. These rows are one share of the data; the hit share may differ from the screen's.
# The line under a structure holds: NPYLR7 agonist max-min | NPYLR7 agonist
> Cc1ccc(-n2c(N)cc(=O)nc2SCC(=O)N2CCN(c3ccccc3)CC2)cc1
  -4 | -2
> COC(=O)COC(=O)c1ccc(NC2=NS(=O)(=O)c3ccccc32)cc1
  0 | 2
> O=C(CN1CCCC1=O)NCC1CC2c3ccccc3C1c1ccccc12 (stereo not given)
  0 | 1
> Cc1nn(Cc2ccccc2)c(C)c1CNCC1COc2ccccc2O1 (stereo not given)
  -6 | -5
> CC1(C(=O)NS(=O)(=O)Cc2ccccc2C(F)(F)F)CCN1C(=O)CC1CCCC1 (stereo not given)
  5 | 10
> CCc1cccc(NC(=O)N(CC(=O)Nc2cc(C(C)(C)C)nn2-c2ccc(Cl)c(Cl)c2)C(C)C)c1
  12 | 6
> COCc1noc(-c2ccc(NCCSc3nccn3C)nc2)n1
  1 | 4
> CCOc1ccc(Nc2oc(-c3ccc(S(=O)(=O)N(CC)CC)cc3)nc2C#N)cc1
  17 | 0
> CCCCN1C(=O)C(O)(c2c(C)nn(CCO)c2N)c2ccccc21 (stereo not given)
  0 | 2
> CC1CCCN(C(=O)c2cncn2-c2cccc(-c3cccc(OC(F)(F)F)c3)c2)C1 (stereo not given)
  0 | 2
> CC(=O)c1cc(C(=O)OCC(=O)NCCc2ccccc2)c2ccccn12
  -9 | 1
> CC(=O)N1CCC(C(=O)NCc2nc(NC3CCCC3)c3cc(Cl)ccc3n2)CC1
  10 | 18
> CC(C)NC(=O)N1CCC(c2nc(-c3ccccc3)no2)CC1
  2 | 4
> COc1ccc(-n2nnc3c(N4CCN(C(=O)C(C)C)CC4)ncnc32)cc1
  -15 | -10
> COCCn1c(=NC(=O)c2cccc(S(C)(=O)=O)c2)sc2c(OC)ccc(OC)c21
  -1 | 0
> Cc1ccc(-c2nc(C)c(C(C)C)c(N3CCN(C(=O)CCc4ccccc4)CC3)n2)cc1
  3 | -7
> CCN(CC(=O)NCc1ccc(F)cc1)c1ncnc2ccsc12
  2 | 3
> COc1cc(C)c2c(=O)cc(-c3ccccc3)oc2c1
  -10 | -8
> NC(=Nc1nc(CSc2ccc(Cl)cc2)cc(=O)[nH]1)Nc1ccccc1C(F)(F)F
  -1 | 0
> Cc1cc(OS(C)(=O)=O)nc2c1cnn2C(C)C
  6 | 8
> CCCCN(C)S(=O)(=O)c1ccc2c(c1)nc(SCC(=O)N1CCOCC1)n2C1CCCC1
  17 | 22
> CCOc1cn2c(cc1=O)C(=O)N(CCNC(=O)c1ccccc1SCC)CC2
  1 | 10
> Cc1cc(C(=O)O)c(C)n1C
  11 | 7
> O=C(Nc1ccc(N2CCCC2=O)c(Cl)c1)c1cccc([N+](=O)[O-])c1
  1 | 0
> Cc1ncc([N+](=O)[O-])n1S(=O)(=O)c1ccc(Br)cc1
  2 | 5
> O=C1Nn2c(nc3ccccc3c2=O)C2CCCCC12 (stereo not given)
  -9 | -8
> CC(C)CN(CC(=O)N(CCc1c[nH]c2ccccc12)Cc1ccc(N(C)C)cc1)C(=O)c1cc(C(F)(F)F)cc(C(F)(F)F)c1
  27 | 27
> CC(C)(CNc1nncc(-c2ccccc2)n1)N1CCOCC1
  -1 | 3
> CC(C)SCC(=O)NC(C)c1cnn(C)c1 (stereo not given)
  -5 | -4
> CC(C)CNc1ccc2c(n1)C(=O)N([C@H](C)C(=O)N[C@@H](C)c1ccccc1)C2
  4 | 7

# Next section.
# The line under a structure holds: NPYLR7 agonist max-min | NPYLR7 agonist
> COC(=O)COC(=O)c1csc(S(N)(=O)=O)c1
  2 | 4
> Cc1ccc(S(=O)(=O)NCCCC(=O)O)c(C)c1N(C)S(=O)(=O)c1ccc(Cl)cc1
  -15 | -11
> O=[N+]([O-])c1cc(F)ccc1S(=O)(=O)Nc1ccccc1N1CCOCC1
  5 | -1
> CC(CO)NCCC(=O)Nc1ccc(N(C)C)cc1 (stereo not given)
  3 | 20
> Cn1c(CCCO)nc2ccccc21
  6 | 0
> COc1ccc(CN(C(=O)c2cccc(F)c2)C2CC2)cc1OS(=O)(=O)C(C)C
  20 | 1
> Cc1cc(C(=O)NCC2CCCN(CCCn3cccn3)C2)no1 (stereo not given)
  1 | 10
> Cn1cc(Br)cc1C(=O)NNS(=O)(=O)c1cccc(F)c1
  5 | 8
> Cc1ccccc1-n1c(SCC(=O)c2ccccc2)nnc1-c1ccncc1
  -5 | -10
> Cc1ccccc1CN(CC(O)COc1ccccc1)C(C)C (stereo not given)
  18 | 22
> Cc1ccc(-c2csc3nc[nH]c(=S)c23)cc1
  4 | 5
> COc1ccc(C(=O)OCC(=O)C(C)(C)C)c(O)c1
  3 | 4
> CCN(CC)S(=O)(=O)c1ccc2c(c1)nc(SCCCC#N)n2C(C)C
  -1 | 3
> O=C(OCc1cc(-c2cc3ccccc3o2)on1)C1CCCCC1
  -6 | -3
> CCC(NNC(=O)c1ccc(C)cc1)C(=O)Nc1cc(C)on1 (stereo not given)
  34 | 36
> O=C(NCCN1C(=O)SC(=Cc2ccc3c(c2)OCO3)C1=O)c1ccccc1O
  0 | 4
> O=c1[nH]c(O)c(C=NC2CCCCCC2)c(=O)[nH]1
  3 | 6
> Cc1ccccc1CN1CCN(CC(=O)N2CCNC2=O)CC1
  5 | 4
> COc1ccc(C(CC(=O)N2CCN(c3cccc(C(F)(F)F)c3)CC2)c2cn(C)c3ccccc23)cc1OC (stereo not given)
  22 | 12
> O=C(c1ccc(Nc2nc(-c3ccccc3)c3cc(Cl)ccc3n2)cc1)N1CCOCC1
  -3 | -1
> Cc1c(Br)c([N+](=O)[O-])nn1CC(=O)Nc1ccc(C(F)(F)F)cc1[N+](=O)[O-]
  -6 | -1
> Cc1ccc2nc(COC(=O)C34CCC(=O)N3c3ccccc3S4)cc(=O)n2c1 (stereo not given)
  6 | 10
> Cc1cccc(S(=O)(=O)NCCc2csc3nc(-c4ccccc4F)nn23)c1
  1 | 2
> Cc1c(Cl)cccc1NC(=O)COc1cc(=O)n2cccc(C)c2n1
  7 | 4
> NC(=O)CSc1ccccc1NC(=O)CN1CCCCCC1=O
  -1 | 1
> CSCCCNC(=O)c1cncn1-c1cccc(-c2cccc3c2sc2ccccc23)c1
  2 | 6
> Cc1nc(CN2CCCC2=NC#N)n(-c2ccccc2)n1
  0 | 1
> CCOc1ccc(N(CC(=O)N2CCN(c3ccccc3)CC2)S(=O)(=O)c2ccc(SC)cc2)cc1
  -8 | -6
> CCc1ccc2c(c1)NC(=O)C2(C)Cc1ccccc1 (stereo not given)
  6 | -2
> C/C(=C/C(=O)NCC(=O)NC1CCS(=O)(=O)C1)c1ccccc1 (stereo not given)
  3 | 8

# (cont.)
# The line under a structure holds: NPYLR7 agonist max-min | NPYLR7 agonist
> Clc1ccc(-c2csc3c4ncnc-4ncn23)cc1
  0 | 2
> Fc1ccc([C@@H]2CCNC[C@H]2COc2ccc3c(c2)OCO3)cc1
  -15&11&-13&-6&-7 | -8&19&-10&-1&5
> NCCNc1c(Cl)c(Cl)c(Cl)c(Cl)c1Cl
  -2 | -1
> COCCCNC(=O)CN(C)c1nc(C)nc(C)c1C
  1 | 1
> CC(c1nc(N)nc(N(C)C)n1)N1CCCc2ccccc21 (stereo not given)
  -5 | -4
> Cc1cc(=O)[nH]c(-n2nc(C)c(CCC(=O)NCc3ccccc3Cl)c2C)n1
  -2 | -2
> CN1C(=O)[C@]2(C)[C@H](c3ccccc31)[C@@H](C(N)=O)CN2C(=O)Cc1cccs1
  33 | 23
> CCCS(=O)(=O)NC(=O)c1ncoc1-c1ccc(C)cc1
  -6 | -6
> COc1cc(C=CC(=O)c2cccnc2)cc(OC)c1
  11 | 21
> COc1ccc(C(CNC(=O)Nc2cccc([N+](=O)[O-])c2)N2CCCC2)cc1 (stereo not given)
  10 | 4
> C=CCNC(=O)N[C@H]1C[C@@H](C(=O)N(C)CC(N)=O)N(C(=O)CSC)C1
  -16 | -9
> COc1ccc(-c2[nH]ncc2CNC(C)c2ccc(Cl)cc2)c(F)c1 (stereo not given)
  -2 | 2
> CCOc1ccc(N2C(=O)CSC2c2cccc(NC(=O)c3ccccc3C)c2)cc1 (stereo not given)
  16 | 16
> C=CCN(Cc1ccccc1OC)C(=O)C1(C(N)=O)CC1
  -2 | 0
> CCc1ccc(C2CC(=O)Oc3c2c(=O)n(C)c2ccccc32)s1 (stereo not given)
  5 | 11
> O=c1c(-c2ccc3c(c2)OCCO3)coc2cc(OCC3OC(CO)C(O)C(O)C3O)ccc12 (stereo not given)
  -4 | -1
> O=C(NCC1CC1)[C@@]1(OCc2ccccc2)CC(OCc2ccccc2)[C@H](O)[C@H](O)C1 (stereo not given in full)
  2 | 3
> COc1ccc(-n2cccc2CN2CCC(N3CCC(O)CC3)CC2)cc1
  3 | 4
> CS(=O)(=O)c1cccc(C(=O)N2CCC3(CCNC(=O)CC3)CC2)c1
  -4 | 0
> CSc1nc2nc(-c3cccs3)cc(C(F)(F)F)c2c(=O)[nH]1
  2 | 1
> FC(F)(F)c1cccc(OCCCCn2cnc3ccccc32)c1
  16 | -7
> O=C(COC(=O)C12CC3CC(CC(O)(C3)C1)C2)NCCN1C(=O)CSC1=O
  21 | 14
> COc1cc(C(=O)NCc2ccnc3ccccc23)ccc1OC1CCN(C(C)=O)CC1
  6 | 12
> c1ccc(CSc2nnc3ccc(-c4ccc5c(c4)OCO5)nn23)cc1
  -12 | -13
> COc1ccc(S(=O)(=O)NCc2nnc(SCc3ccc(F)cc3)n2-c2cc(Cl)ccc2Cl)cc1
  6 | 0
> Cc1ccc(-c2cc(NC(=O)CCc3ccccc3)n(-c3ccccc3C)n2)cc1
  13 | 25
> O=C(C1CCN(C2CCN(Cc3nc(-c4ccccc4)cs3)CC2)CC1)N1CCCC1
  9 | 10
> CCO[C@H]1COC[C@@H]1NC(=O)c1cc2ccccc2oc1=O
  2 | 2
> CC(C)(C)C(=O)N1CCN(CCCOC(c2ccc(Cl)cc2)c2ccc(Cl)cc2)CC1
  -2 | 3
> c1ccc(-c2cnn(CCOCC3CCCO3)c2)cc1 (stereo not given)
  12 | 14

# Additional records
# The line under a structure holds: NPYLR7 agonist max-min | NPYLR7 agonist
> Cc1c(F)ccc2sc(NC(=O)N(C)CCc3ccccn3)nc12
  -6 | -5
> Nc1nc(Cl)nc2c1ncn2[C@@H]1O[C@H](CO)[C@@H](O)[C@H]1O
  64* | 76*
> O=C(CCc1ccsc1)NC1CCCc2nc(-c3ccccc3)ncc21 (stereo not given)
  -7 | -7
> CC(C)C(=O)N1CCN(c2ccc(Nc3ccncc3)nn2)CC1
  -1 | 3
> CCCCn1cnc2c1c(=O)n(CC(=O)NC(C)CC)c(=O)n2CCC (stereo not given)
  5 | 11
> CNC(=S)NN1C(C)CCCC1C (stereo not given)
  -11 | -5
> COc1cccc2c1OCC(C(=O)NCc1cnc(C)cn1)C2 (stereo not given)
  32 | 0
> CCOC(=O)c1ccc2c(c1)nc(SCc1cccc(OC)c1)n2Cc1ccccn1
  -4 | 1
> CON(C)C(=O)C1(c2ccc(Br)cc2)CCOCC1
  5 | 1
> O=C(CSc1nnc(-c2ccc(Cl)cc2)n1-c1ccccc1)N/N=C\c1cccnc1
  11 | 2
> COc1ccc(-c2cc(C(F)(F)F)n3nc(C(=O)Nc4cccc(C(C)=O)c4)cc3n2)cc1
  -6 | -4
> CC1(C(=O)N2CCC3(CCc4ccccc43)C2)CCCCC1 (stereo not given)
  3 | 3
> Cc1ccccc1C(=O)NNc1cc(N2CCOCC2)nc(N2CCOCC2)n1
  -24 | -15
> Cc1cccc(-c2ccnc3nc(N4CCN(C(=O)c5ccc(C(C)(C)C)cc5)CC4)nn23)c1
  -2 | 4
> Cc1nc(SCc2cccc(C(=O)NC3CC3)c2)nc(N2CCN(C/C=C/c3ccccc3)CC2)c1C
  8 | 2
> O=S(=O)(c1ccccc1)N1CCOc2ccc(Cl)cc21
  4 | 7
> Cc1cccc(-n2nc(C(=O)NCc3ccc(F)cc3)c(=O)n(Cc3ccccc3Cl)c2=O)c1
  18 | 13
> Cc1cc(C)c(S(=O)(=O)N2CCC(C(=O)N3CCc4sccc4C3C)CC2)c(C)c1 (stereo not given)
  0 | 0
> CN(CCC(=O)Nc1cccc(F)c1)Cc1cnc2ccccc2c1
  4 | 9
> Cc1cc(C)n2ncc(C#N)c2n1
  4 | 3

# 16 successive compounds from above:
# The line under a structure holds: NPYLR7 agonist max-min | NPYLR7 agonist
> CCCCn1cnc2c1c(=O)n(CC(=O)NC(C)CC)c(=O)n2CCC (stereo not given)
  5 | 11
> CNC(=S)NN1C(C)CCCC1C (stereo not given)
  -11 | -5
> COc1cccc2c1OCC(C(=O)NCc1cnc(C)cn1)C2 (stereo not given)
  32 | 0
> CCOC(=O)c1ccc2c(c1)nc(SCc1cccc(OC)c1)n2Cc1ccccn1
  -4 | 1
> CON(C)C(=O)C1(c2ccc(Br)cc2)CCOCC1
  5 | 1
> O=C(CSc1nnc(-c2ccc(Cl)cc2)n1-c1ccccc1)N/N=C\c1cccnc1
  11 | 2
> COc1ccc(-c2cc(C(F)(F)F)n3nc(C(=O)Nc4cccc(C(C)=O)c4)cc3n2)cc1
  -6 | -4
> CC1(C(=O)N2CCC3(CCc4ccccc43)C2)CCCCC1 (stereo not given)
  3 | 3
> Cc1ccccc1C(=O)NNc1cc(N2CCOCC2)nc(N2CCOCC2)n1
  -24 | -15
> Cc1cccc(-c2ccnc3nc(N4CCN(C(=O)c5ccc(C(C)(C)C)cc5)CC4)nn23)c1
  -2 | 4
> Cc1nc(SCc2cccc(C(=O)NC3CC3)c2)nc(N2CCN(C/C=C/c3ccccc3)CC2)c1C
  8 | 2
> O=S(=O)(c1ccccc1)N1CCOc2ccc(Cl)cc21
  4 | 7
> Cc1cccc(-n2nc(C(=O)NCc3ccc(F)cc3)c(=O)n(Cc3ccccc3Cl)c2=O)c1
  18 | 13
> Cc1cc(C)c(S(=O)(=O)N2CCC(C(=O)N3CCc4sccc4C3C)CC2)c(C)c1 (stereo not given)
  0 | 0
> CN(CCC(=O)Nc1cccc(F)c1)Cc1cnc2ccccc2c1
  4 | 9
> Cc1cc(C)n2ncc(C#N)c2n1
  4 | 3

# Screening results (PubChem)
